Screening data: PubChem, National Center for Advancing Translational Sciences (NCATS)
RE007 growth inh = qHTS Assay for Inhibitors of the HIV-1 protein Vpr; S. pombe RE007 Vpr strain, BacTiter-Glo ATP luminescence, 24 h; control for the full effect not named in the record; Potency, µM (highest dose often 92.2 µM), for the others: at the highest dose activity change, negative = less growth; 360,000 tested, 0.21% active; active = well fitted falling curve with a large enough effect; inconclusive = small, poorly fitted or top-dose-only effect; inactive = no such curve, though single readings can be large or run the other way;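 note: % is set by controls: 0 for no effect and ±100 for the full control effect; nearly all actives have a fitted effect of over 50% in size; the assay follows cell death caused by Vpr and the record does not say whether a fall means rescue or toxicity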
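Fission yeast strain RE007, carrying one chromosomally integrated HIV-1 vpr copy, was seeded at OD 0.01 in PMG+AL medium with 23 nL pinned compound. After 24 h at 30 °C and 99% humidity, viability was read by BacTiter-Glo luminescence.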
SARS PLP yeast = qHTS of Yeast-based Assay for SARS-CoV PLP. S. cerevisiae expressing SARS-CoV PLpro, growth rescue; control for the full effect not named in the record. AID 485353, 2010. Potency, µM (titrated, usually from 32.9 µM), inactives show at the highest dose activity, positive = growth rescue. 330,000 tested, 0.19% active; note: 0% is about no effect; nearly all actives have a fitted effect of over 55% in size; growth read by luminescence after 48 h
MARV entry inh = qHTS for inhibitors of binding or entry into cells for Marburg Virus; 300,000 tested, 1.8% active; AID 540276, 2011; Marburg virus pseudotyped entry inhibition, cell reporter; control for the full effect not named in the record; about a third of the inactives were read at about 46 µM; Potency, µM (series often up to 37.8 µM), for the others: top-dose activity change, negative = inhibition, most hits filed as inhibitors; active = well fitted inhibition curve with a large enough effect; inconclusive = small, poorly fitted or top-dose-only effect, or effect the other way; inactive = flat fitted curve, though single readings scatter; tested in HEK293 cells; about a fifth of its hits are not listed in these tables; note: % is set by controls: 0 for no effect and ±100 for the full control effect; luciferase read-out
NS1 function inh = qHTS Assay for Inhibitors of Influenza NS1 Protein Function. Potency, µM (top dose mostly 46.1 µM), without a hit: top-dose activity, positive = more growth. 270,000 tested, 0.4% active. S. cerevisiae slowed by influenza A NS1, growth recovery by OD600; note: actives are rising curves; nearly all actives have a fitted effect of over 50% in size
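Compounds were scored for reversing the slow growth caused by influenza A NS1 in S. cerevisiae, measured by optical density at 600 nm. Assay medium contained 2% galactose at pH 6.0; NS1-free yeast of the same strain were the positive control.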
Cruzain noTriton = qHTS Assay for Promiscuous and Specific Inhibitors of Cruzain (without detergent); Cruzipain (Trypanosoma cruzi), P25779; 200,000 tested, 2.3% active; AID 1476, 2009; Potency, µM, for the others: max response, negative = inhibition, most hits filed as inhibitors; purified cruzain, Z-FR-AMC fluorescence, no detergent; active = well fitted curve in the direction sought with a large enough effect; inconclusive = small, poorly fitted or top-dose-only effect, or another doubt; inactive = no such curve, though single readings can be large; an effect the other way counts as inactive or inconclusive;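 note: plate controls were enzyme without inhibitor for no effect and buffer without enzyme for full effect; nearly all actives have a fitted effect of over 40% in size; top concentration of the series not given in the record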
Target sequence (P25779 123-467 limits assumed): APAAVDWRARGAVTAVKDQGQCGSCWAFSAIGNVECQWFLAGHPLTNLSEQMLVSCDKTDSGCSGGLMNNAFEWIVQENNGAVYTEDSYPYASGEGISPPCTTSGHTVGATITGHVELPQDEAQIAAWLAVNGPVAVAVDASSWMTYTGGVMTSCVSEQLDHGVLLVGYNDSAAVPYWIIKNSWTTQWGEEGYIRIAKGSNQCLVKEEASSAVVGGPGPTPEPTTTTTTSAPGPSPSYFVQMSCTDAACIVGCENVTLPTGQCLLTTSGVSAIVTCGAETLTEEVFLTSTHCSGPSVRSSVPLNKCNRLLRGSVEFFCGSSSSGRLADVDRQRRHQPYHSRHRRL
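Purified cruzain at 1.5 nM, pre-incubated 15 min with compound at room temperature in 100 mM sodium acetate pH 5.5, 5 mM DTT, 0.00005% Triton X-100. Reaction started with 2 uM Z-FR-AMC; AMC fluorescence increase over 60 s gives rate.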
LASV entry inh = qHTS for Inhibitors of binding or entry into cells for Lassa Virus; 300,000 tested, 1.2% active; Lassa virus pseudotype entry inhibition, cell reporter; control for the full effect not named in the record; Potency, µM (top dose mostly 37.9 µM), without a hit: at the highest dose activity change, negative = inhibition, hits mostly inhibitors; active means well fitted inhibition curve with a large enough effect; inconclusive means small, poorly fitted or top-dose-only effect, or effect the other way; inactive means flat fitted curve, though single readings scatter; tested in HEK293 cells; note: % is set by controls: 0 for no effect and ±100 for the full control effect; nearly all actives have a fitted effect of over 50% in size; luciferase read-out
StopGo reporter = High Throughput Screening for Foot and Mouth Disease Virus Antivirals | human cells with a luciferase reporter of 2A StopGo recoding; control for the full effect not named in the record | Potency, µM (top dose mostly 57.9 µM), for the others: at the top dose signal change, negative = less light | 410,000 tested, 1.2% active | AID 1159524, 2015; active = well fitted falling curve with a large enough effect; inconclusive = small, poorly fitted or top-dose-only effect; inactive = no such curve, though single readings can be large or run the other way; tested in HEK293T cells; note: % is set by controls: 0 for no effect and ±100 for the full control effect; nearly all actives have a fitted effect of over 45% in size; luciferase light after 4 h
Cruzain inh Det = qHTS Assay for Promiscuous and Specific Inhibitors of Cruzain (with detergent); purified cruzain, Z-FR-AMC fluorescence, 0.01% Triton; Potency, µM, for the others: max response, negative = inhibition, most hits filed as inhibitors; 200,000 tested, 0.43% active; AID 1478, 2009; active = well fitted curve in the direction sought with a large enough effect; inconclusive = small, poorly fitted or top-dose-only effect, or another doubt; inactive = no such curve, though single readings can be large; an effect the other way counts as inactive or inconclusive;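 note: plate controls were neutral wells for no effect and buffer without enzyme for full effect; nearly all actives have a fitted effect of over 40% in size; top concentration of the series not given in the record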
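Cruzain (1.5 nM) preincubated 15 min at RT with compound in 100 mM sodium acetate pH 5.5, 5 mM DTT, 0.01% Triton X-100. Reaction started with 2 uM Z-FR-AMC; AMC fluorescence (ex 360/em 450 nm) change over 60 s gave rate.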
Active calls of the source: *; ? = inconclusive; · = not tested or not shown; & = joins results of further samples; ! = not active in a repeat; [ ] = another dose, or the depositor's remark. Unless noted, calls come from the whole dose curve; as a rule, active means well fitted rising curve with a large enough effect; inconclusive means small, poorly fitted or top-dose-only effect; inactive means no such curve, though single readings can be large or run the other way. Potency is the fitted concentration of half-maximal effect. This is a random part of the collection (roughly 4.6% active in at least one column).

structure,RE007 growth inh,SARS PLP yeast,MARV entry inh,NS1 function inh,Cruzain noTriton,LASV entry inh,StopGo reporter,Cruzain inh Det
CCOc1cc(/C=C2\SC(=S)N(N3CCOCC3)C2=O)ccc1O,-5.0%,0.4%,·,6.4%,·,·,-6.1%,·
C=CCN1C(=NC(=O)COc2ccc(Cl)cc2)SC2CS(=O)(=O)CC21 (stereo not drawn),0.2%,16.7%,3.1%[46.1 µM],-12.5%,·,-12.1%[46.1 µM],-16.8%,·
Fc1ccc(-n2c(Cc3cccs3)n[nH]c2=S)cc1Cl,3.8%,-0.2%,-8.4%[46.1 µM],·,·,-5.0%,9.2%,·
O=C1CCC(CCc2nc3ccccc3[nH]2)(c2ccccc2)C(=O)N1 (stereo not drawn),-25.0%,·,15.4%,·,·,-14.4%,-21.0%,·
Cc1ccc(-c2cn(-c3ccccc3)c(SCC(=O)NC3CCS(=O)(=O)C3)n2)cc1C (stereo not drawn),·,18.1%,?,-3.3%,?,11.1%,36.9%[activator],-0.2%
Cc1sc(N/N=C/c2cccnc2)nc1-c1ccccc1,2.1%,4.6%,?,10.9%,-29.1%,2.91µM*,?,-22.6%
CCc1ccccc1NC(=O)N1CC(CC)Oc2ccc(Cl)cc21 (stereo not drawn),·,·,·,·,-3.0%,?,-17.2%,-7.6%
CCOc1ccc(NC(=O)CSc2nc3ccccc3c(=O)n2Cc2cccs2)cc1,-2.6%,-6.5%,3.0%,-5.3%,-21.1%,1.4%,-9.2%,-0.5%
Cc1ccnc(NS(=O)(=O)c2ccc(NC(=O)c3ccc(Br)o3)cc2)n1,-11.3%,-0.9%,20.6%[46.1 µM],0.3%,·,?,5.1%,·
CC(=O)c1cccc(NC(=O)CN2C(=O)COc3ccc(Cl)cc32)c1,-13.1%,-3.7%,-1.9%,-6.2%,-14.1%,-12.6%,·,-1.9%
CCC(C(=O)NCc1ccco1)n1nc(-c2ccc(OC)cc2)ccc1=O (stereo not drawn),8.5%,-0.5%,-14.1%,-6.9%,15.1%,-15.7%,-15.3%,-4.8%
CCCCCCCNC(=O)C1(CC2CC(c3ccc(Cl)cc3)=NO2)CCN(C(=O)C2(C)CC2)CC1 (stereo not drawn),-6.8%,-19.7%,·,-5.5%,·,·,-22.9%,·
O=C(CSc1nnnn1C1CCCCC1)Nc1ccc2c(c1)OCO2,-9.3%,-3.8%,14.2%,-2.1%,9.9%,2.6%,18.5%,9.5%
Cc1ccc(C)n1-c1ccc(C(=O)NCC2CCCO2)cc1 (stereo not drawn),1.1%,-4.6%,-29.9%,16.2%,0.3%,-24.1%,31.3%[activator],1.3%
Cc1ccc(S(=O)(=O)N2CCOCC2)cc1C(=O)NC1CCCCC1,0.9%,16.1%,9.9%,-0.1%,1.9%,9.8%,7.7%,3.0%
COc1c(C=O)c(CCN(C)C(=O)c2ccc(F)cc2)cc2c1OCO2,-0.3%,1.5%,-0.1%,-0.9%,·,-3.6%,-13.7%,·
C/C(=N\NC(=O)c1ccccc1)c1nc2ccccc2n1C,10.4%,-1.2%,-31.9%,-4.4%,-6.6%,-14.7%,6.6%,-8.4%
O=C(Nc1cc(C(F)(F)F)ccc1N1CCCC1)C1=COCCO1,3.7%,-0.7%,-1.0%,·,·,-20.8%,-11.2%,·
CCC(C(=O)NCCc1ccc(C)cc1)n1nc(C)c2c(C)n(-c3ccccc3)nc2c1=O (stereo not drawn),-6.7%,7.2%,·,13.8%,·,·,-9.3%,·
O=C(c1ccccc1F)N1CCC2(CC1)OCCO2,13.6%,-0.9%,17.7%[46.1 µM],-1.0%,·,-0.2%[46.1 µM],20.0%,·
CCOc1ccc(C2/C(=C(/O)c3ccc(OC)cc3)C(=O)C(=O)N2c2cc(C)on2)cc1OC (stereo not drawn),5.4%,-0.5%,0.6%&-12.5%,3.2%,-12.7%,-0.3%,-14.5%,-4.1%
Fc1ccc(C2CC(c3ccccc3)n3ncnc3N2)cc1 (stereo not drawn),0.3%,1.0%,-13.3%,5.3%,-5.2%,0.5%,-24.4%,1.8%
CC(C)CCNC(=O)CCC(=O)NNc1nc2ccccc2c2nc(-c3ccccc3)nn12,1.5%,19.7%,?,-6.4%,16.6%&1.0%,5.8%[46.1 µM],0.0%&-26.6%,-0.2%&1.1%
COc1cc(Cl)c(C)cc1NC(=O)Cn1ncc2c3ccccc3n(Cc3ccccc3)c2c1=O,·,·,-21.1%[46.1 µM],·,-9.6%,-10.7%[46.1 µM],-0.8%,-2.4%
Clc1ccc(OCc2nnc(SCc3nc4ccccc4[nH]3)n2Cc2ccco2)cc1,-1.4%,-7.1%,?,-109.3%,-12.2%,?,?,-11.8%
CCOP(=O)(OCC)C(C)(C)NC(=O)c1cc([N+](=O)[O-])cc([N+](=O)[O-])c1,20.2%,3.5%,-5.7%,4.5%,6.7%,-9.1%,-9.9%,-0.5%
CCC(=O)OCC(=O)N=c1sccn1Cc1ccccc1Cl,19.7%,-3.7%,25.2%,6.2%,·,5.5%,-4.4%,·
CCCOC(=O)C1=C(C)N(C)C(=O)NC1c1cc2c(cc1[N+](=O)[O-])OCO2 (stereo not drawn),-8.3%,?,-5.7%[46.1 µM],·,·,10.2%,-5.2%,·
CSCCC(NC(=O)c1ccc(Cl)cc1Cl)C(=O)N1CCCCCCC1 (stereo not drawn),21.6%,1.6%,0.9%,·,·,-8.6%,10.9%,·
CC(C)(C)c1ccc(-c2cc(N)n[nH]2)cc1,-2.1%,-0.9%,-1.5%,?,-15.9%,·,?,0.2%
O=C(CN1C(=O)CSc2ccccc21)N/N=C/c1ccco1,16.7%,0.7%,2.8%[46.1 µM],?,·,-29.1%,-9.5%,·
C1CSC2(N1)C1CC3CC(C1)CC2C3 (stereo not drawn),26.9%,-7.3%,0.0%,-2.5%,-2.1%,11.6%,-15.7%,3.6%
N#Cc1nc(-c2ccco2)oc1N1CCC(Cc2ccccc2)CC1,-1.5%,-2.4%,-4.7%,6.6%,-0.2%,6.0%,-21.3%,-11.2%
Cc1ccc(C)c(N2CCN(C(=O)c3cc4sccc4n3C)CC2)c1,5.8%,-15.4%,18.3µM*,-30.6%,1.7%,?,?,-5.8%
Cc1ccc(-n2c(CSc3nc(C)cc(C)n3)nnc2SCC(=O)Nc2nccs2)cc1,8.0%,-1.2%,13.5%&13.5%[46.1 µM],-4.2%&7.9%,·,9.7%,-13.1%,·
Cc1cc(NC(=O)C2CC(c3ccccc3Cl)=NO2)no1 (stereo not drawn),6.0%,2.9%,14.0%[46.1 µM],-7.4%,-2.6%,5.2%,-5.7%,2.1%
CC(C)Cc1cc(CNC(=O)C2CCC(=O)N(Cc3cccc(C(F)(F)F)c3)C2)on1 (stereo not drawn),-2.1%,14.6%,16.4%,14.1%,·,10.7%,12.9%,·
Oc1ccc(CCNc2ncnc3ccc(Cl)cc23)cc1,-16.1%[18.4 µM],-2.9%,·,-11.2%,·,·,10µM*,·
Cc1cccc(NC(=S)NC(=O)c2oc3ccccc3c2C)n1,1.0%,2.0%,?,0.8%,·,·,28.2%,·
COc1ccc(NC(=O)Nc2ccccc2F)cc1,-10.8%,-2.1%,?,-50.5%,-25.4%,?,·,-2.5%
O=C(COC(=O)CCc1ccc(S(=O)(=O)N2CCOCC2)cc1)Nc1ccc(Cl)cn1,7.9%,-8.2%&2.6%,0.794µM*!,-12.9%,6.4%,-2.0%,-19.0%,-4.5%
COc1ccc2c(c1)O[C@@H](c1cccc(C(F)(F)F)c1)[C@H](OC(=O)N[C@H]1CCCc3ccccc31)C2=O,·,-13.7%,?,?,?,3.2%,·,-3.5%&-1.7%
COc1ccc(CNC(=O)CCc2c(C)c3cc4c(C)coc4cc3oc2=O)cc1,·,·,16.3%[46.1 µM],·,0.9%,29.9%[46.1 µM],-19.4%,-8.5%
CCn1cc(C(=O)NCc2ccco2)c(=O)c2cc(F)c(N3CCN(C(=O)c4ccco4)CC3)cc21,9.9%,4.0%,?,-1.1%[9.22 µM],?,?,?,-4.4%
COc1cccc(C2=NN(C(=O)c3ccccc3)C(O)(C(F)(F)F)C2)c1 (stereo not drawn),-16.4%,-16.6%,?,-3.6%,0.2%,15.4%,-13.9%,-5.2%
O=S(=O)(Nc1ccc(S(=O)(=O)Nc2nccs2)cc1)c1ccc2c(c1)OCCO2,14.5%,2.4%,-21.0%,2.9%,-2.9%,-26.8%,0.0%,-1.8%
Brc1ccccc1C1CC(c2ccccc2)=Nc2ccccc2N1 (stereo not drawn),-27.7%,-49.6%,?,-41.1%,?,?,1.9%,-5.4%
O=C(CN1CCC(N2CCCCC2)CC1)N1CCCc2ccccc21,2.5%,1.4%,-5.4%,5.9%,-11.2%,-1.5%,-18.8%,-1.0%
COc1cccc(CN2CC(C(=O)N(C)Cc3[nH]c4ccccc4c3C)CCC2=O)c1 (stereo not drawn),0.1%,2.1%,16.6%[46.1 µM],0.7%,·,2.0%[46.1 µM],-15.9%,·
CN1CCN(C(=O)CCn2nc(-c3ccccc3)c3ccccc3c2=O)CC1,6.8%,1.5%,-14.8%,5.8%,-1.9%,6.0%,-7.0%,2.9%
CCCN(CCC)c1nn2c(=O)c(C(=O)NCc3cc(Br)ccc3OC)cnc2s1,·,·,·,·,1.8%,-9.8%[46.1 µM],0.0%,-1.9%
O=C(NC1CC2CCCC(C1)N2C(=O)Nc1ccc(F)cc1)c1ccccc1 (stereo not drawn),28.7%,10.0%,-17.1%[46.1 µM],-12.2%,·,2.1%,-19.2%,·
